# VCAM-1 augmentation – boosters of cytokine-driven VCAM-1 levels – imaging, high-content imaging, pooled HUVEC, TNFa stimulus (AID 457) | Pooled HUVEC, TNFa-induced VCAM-1 immunofluorescence imaging; hits of this screen are not shown here | actives 0.2% (n = 10,000) | calls only;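 active = a top-ranked rise in VCAM-1 staining upheld on image or statistical review; inactive = the rest, including candidates rejected on review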;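 also: compounds tested at 5 µM in the well; cells exposed to compound for 24 hours before fixing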
# FPR ligand – binds the human formylpeptide receptor FPR; actives 0.74% (n = 24,000); inhibition, %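 (tested at 6.7 µM)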; P21462; FPR-expressing cells, fluorescent ligand binding, flow cytometry; AID 440;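 also: 0% = buffer wells and 100% = receptor blocker peptide wells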
# Target sequence (P21462 whole entry, looked up): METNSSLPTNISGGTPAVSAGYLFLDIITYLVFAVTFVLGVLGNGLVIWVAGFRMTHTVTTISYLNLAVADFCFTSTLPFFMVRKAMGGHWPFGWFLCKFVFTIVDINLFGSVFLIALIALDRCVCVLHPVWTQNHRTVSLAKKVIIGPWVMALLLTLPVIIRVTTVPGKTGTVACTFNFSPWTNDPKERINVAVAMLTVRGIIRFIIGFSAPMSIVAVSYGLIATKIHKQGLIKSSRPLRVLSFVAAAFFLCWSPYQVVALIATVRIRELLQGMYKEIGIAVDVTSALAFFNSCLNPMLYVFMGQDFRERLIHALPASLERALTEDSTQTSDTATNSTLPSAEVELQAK
# FPRL1 binder – binds the human formylpeptide receptor-like-1 FPRL1; AID 441; FPRL1-expressing cells, fluorescent ligand binding inhibition, flow cytometry; actives 0.3% (n = 24,000); inhibition, %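 (tested at 6.7 µM)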;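 also: 0% = buffer alone and 100% = receptor blocker peptide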
# Target sequence (P25090 whole entry, looked up): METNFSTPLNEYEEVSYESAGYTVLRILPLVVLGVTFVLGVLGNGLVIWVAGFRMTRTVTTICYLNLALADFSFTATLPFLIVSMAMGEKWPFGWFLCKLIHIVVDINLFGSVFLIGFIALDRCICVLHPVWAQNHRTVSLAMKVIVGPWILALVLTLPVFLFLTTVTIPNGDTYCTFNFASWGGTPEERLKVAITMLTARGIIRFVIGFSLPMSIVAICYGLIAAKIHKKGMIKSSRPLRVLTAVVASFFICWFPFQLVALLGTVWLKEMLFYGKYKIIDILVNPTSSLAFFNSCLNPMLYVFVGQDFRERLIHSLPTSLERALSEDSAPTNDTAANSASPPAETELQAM
# VCAM-1 imaging – suppression of endothelial VCAM-1 upregulation – imaging, high-content imaging, pooled HUVEC, TNFa stimulus (AID 456); inhibition, % at 5 µM, or IC50 in µM where a hit was titrated; HUVEC TNFa-induced VCAM-1 surface expression, immunofluorescence imaging; numbers were filed only for top-ranked candidate wells; actives 0.2% (n = 10,000);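 active = top tenth filtered wells with inhibition above zero that passed visual or statistical confirmation; inactive = the rest, including hits rejected on review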;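 also: 0% = stimulated vehicle wells and 100% = unstimulated cells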
# VCAM-1 inhibition – suppression of endothelial VCAM-1 upregulation – cell-based, plate reader, pooled HUVEC, TNFa stimulus (AID 454); HUVEC TNFa-induced VCAM-1 surface immunofluorescence, plate reader; numbers were filed only for top-ranked candidate wells; actives 0.2% (n = 10,000); inhibition, % at 5 µM;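 active = compound among top-ranked inhibitors of TNF-induced VCAM-1 adhesion protein staining, with the hit upheld by image or statistical review; inactive = the rest, including hits rejected on review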;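 also: 0% = TNFa with vehicle and 100% = cells without TNFa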
# Active calls of the source: *; i = inactive; · = not tested or not shown.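 The calls were made as follows, unless noted: active = mean above 30%; inconclusive = self-fluorescent; inactive = the rest.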 Not all compounds are listed; rates above refer to the full screens.
VCAM-1 augmentation	FPR ligand	FPRL1 binder	SMILES	VCAM-1 imaging	VCAM-1 inhibition
·	4.6	-8.1	Cn1c(Cn2c(=O)sc3ccccc32)nnc1SCc1ccc(F)cc1	·	·
·	6.5	1.5	COCCn1c(SCC(=O)Nc2ccc3c(c2)OCCO3)nnc1-c1c[nH]c2ccccc12	·	·
·	-2.2	5.2	O=C(CCCCn1c(=S)[nH]c2ccsc2c1=O)NCc1ccco1	·	·
i	-1.2	-5.2	Cc1ccc(NC(=O)c2ccc(NS(=O)(=O)c3c(C)noc3C)cc2)cc1C	i	i
·	-7.0	-4.2	COc1ccccc1Nc1ncc(C(=O)N2CCC(C(N)=O)CC2)c2ccccc12	·	·
i	-0.7	13.9	O=C(CCCCC(=O)NCc1cccs1)NCc1cccs1	i	i
·	-3.8	-7.0	Cc1ccc(C(c2sc3nc(C)nn3c2O)N2CCN(c3ccccc3F)CC2)cc1 (configuration not stated)	·	·
i	0.0	-4.8	COc1ccc(-n2c(Cc3cccn3C)nnc2SCC(N)=O)cc1	i	i
i	-2.6	6.1	CCCSc1ccc2nc(NC(=O)OC)[nH]c2c1	i	i
·	4.0	1.0	CCCS(=O)(=O)N1CCC(C(=O)NCCCOC)CC1	·	·
·	-5.6	-1.8	Cc1cc(C)n(C(=O)C2CCCN2S(=O)(=O)c2ccc(Cl)cc2)n1 (configuration not stated)	·	·
·	4.9	-4.7	Cc1ccc(C)c(N2CCN(c3cc(C)nc4nnnn34)CC2)c1	·	·
·	-6.9	-3.2	CCOC(=O)c1sc(C)nc1C1CCN(C(=O)OCC)CC1	·	·
·	3.2	-8.6	COc1cccc(C2N(c3cccc(Cl)c3)C(=O)C3CCCN32)c1OC (configuration not stated)	·	·
i	-2.5	0.0	CCN1CCN(c2nc3c(c(=O)n(C)c(=O)n3C)n2Cc2cccc3ccccc23)CC1	i	i
·	-2.5	3.3	CCN1C(=O)c2cccc3c(S(=O)(=O)NCCCN4CCOCC4)ccc1c23	·	·
i	1.5	-0.3	CC(=O)N1CCN(Cc2ccc(Br)s2)CC1	i	i
·	4.4	-0.6	CCc1ccc(Cn2nnc(C(=O)Nc3ccc(OC)cc3OC)c2N)cc1	·	·
i	-0.5	9.5	COc1ccccc1N1CCN(c2nc3ccccc3nc2C(C#N)C(=O)OC(C)C)CC1 (configuration not stated)	i	i
·	-1.2	7.6	Cc1ccc(C)c(N(C)C(=O)COc2cc(=O)n(C)c3ccccc23)c1	·	·
·	-7.9	1.0	O=C(CSc1nc2c(cnn2-c2ccccc2)c(=O)[nH]1)N1CCOCC1	·	·
·	-3.7	5.3	CC(C)NC(=O)c1n[nH]c(=O)c2ccccc12	·	·
i	-1.2	-2.1	Cc1ccccc1C(=O)NC1CCN(CC(=O)Nc2nccs2)CC1	i	i
·	4.0	-0.5	CCN(CC)c1ccc(NS(=O)(=O)c2ccc3c(c2)oc(=O)n3C)c(C)c1	·	·
·	4.3	1.1	Cc1ccc(CCN2C(=O)CCC2(C)C(=O)NC2CCCC2)cc1 (configuration not stated)	·	·
·	-0.6	-2.5	COc1ccc(Nc2cc(C)nc3nc(C)nn23)c(OC)c1	·	·
i	2.1	-4.4	CC1(C)CC(=O)c2cnc(NC(=O)CCc3ccccc3)nc2C1	i	i
·	4.4	-2.5	COc1cccc(N2CCN(C(=O)c3ccc4nc(N5CCCCC5)sc4c3)CC2)c1	·	·
·	2.5	8.5	COc1ccc(C(CCc2ccc(C)o2)NC(=O)Nc2ccc(OC)cc2OC)cc1 (configuration not stated)	·	·
·	-6.4	-1.2	CSc1ccc(NC(=O)N2CC(C)OC(C)C2)cc1 (configuration not stated)	·	·
i	4.0	8.0	CC(=O)Oc1cccc(/C=c2\sc3nc(-c4ccco4)nn3c2=O)c1	i	i
·	-7.8	-21.6	COc1ccccc1C1/C(=C(/O)c2ccc(C)cc2)C(=O)C(=O)N1CCN1CCOCC1 (configuration not stated)	·	·
i	-1.9	-3.5	CCOC(=O)Cc1nn2c(=O)cc(C)nc2s1	i	i
i	7.3	-0.8	COc1cccc(/C=N/n2cnnc2)c1OCc1ccccc1	i	i
i	-4.3	-2.9	CNc1nnc(-c2cccc(N(C)C)c2)s1	i	i
·	1.1	-0.5	COc1cccc(-c2nc(CS(=O)(=O)CC(=O)Nc3cccc(C)c3C)c(C)o2)c1	·	·
i	-4.0	-3.9	ON=C1/C(=N\O)CC2(C/C1=N/O)OCCO2	i	i
i	-12.1	-10.4	CC(C)N(C=O)C1(C(=O)NC2CCCCC2)CCCCC1	i	i
·	12.0	0.0	c1ccc2c(c1)CCN(c1nc3cc4c(cc3s1)OCCO4)C2	·	·
·	-2.6	-1.5	CC1=C(C(=O)OC(C)C)C(c2cccs2)n2ncnc2N1 (configuration not stated)	·	·
·	1.3	-1.9	Cc1ccc(CNC(=O)CCCOc2cc(=O)n(C)c3ccccc23)o1	·	·
·	4.4	-1.6	COc1ccc(OC)c2[nH]c(=O)c(CCNC(=O)C3CCCCC3)cc12	·	·
i	-6.8	6.3	N#CCCn1cnc2ccccc21	i	i
·	2.3	1.6	O=C(NC1CCCC1)C1CC(=O)N(C2CCCCCCC2)C1 (configuration not stated)	·	·
·	-0.5	13.1	CCOC(=O)N1CCN(C(=O)Cn2nc(-c3ccc(Cl)cc3)ccc2=O)CC1	·	·
·	2.2	1.0	O=C(NCN1CCN(c2ccccc2F)CC1)c1ccccc1	·	·
i	7.3	-4.7	O=C(CCN1CCN(C(=O)c2ccco2)CC1)Nc1ccc(F)cc1	i	i
·	-6.0	-11.9	O=C1C(=O)N(Cc2cccnc2)C(c2ccccn2)/C1=C(/O)c1ccc(F)cc1 (configuration not stated)	·	·

# Whole records, looked up by structure. Values in the order: VCAM-1 augmentation	FPR ligand	FPRL1 binder	VCAM-1 imaging	VCAM-1 inhibition
# Profile of `CCOC(=O)N1CCN(C(=O)Cn2nc(-c3ccc(Cl)cc3)ccc2=O)CC1` → ·	-0.5	13.1	·	·
# Profile of `O=C(NCN1CCN(c2ccccc2F)CC1)c1ccccc1` → ·	2.2	1.0	·	·
# Profile of `COc1ccc(OC)c2[nH]c(=O)c(CCNC(=O)C3CCCCC3)cc12` → ·	4.4	-1.6	·	·

# The list continues:
VCAM-1 augmentation	FPR ligand	FPRL1 binder	SMILES	VCAM-1 imaging	VCAM-1 inhibition
i	-7.2	3.3	CCOC(=O)c1cc2sc(C)cc2n1C(C)C(=O)OCC (configuration not stated)	i	i
·	10.2	10.1	O=C(C1CCC(CNc2nc(=S)[nH]c3ccccc23)CC1)N1CCN(c2ccccn2)CC1 (configuration not stated)	·	·
i	-1.8	6.9	O=C(CN1C(=O)c2cccc3cccc1c23)N1CCN(c2ccccc2)CC1	i	i
·	2.3	-4.6	CCCCS(=O)(=O)NC1=NCN(CCO)CN1	·	·
·	-3.7	14.2	O=C(CSc1nnc(Cc2cc(=O)[nH]c(=O)[nH]2)n1-c1ccccc1)N1CCCc2ccccc21	·	·
·	11.8	6.8	COc1ccccc1C(=O)NC(C)c1nc2ccccc2[nH]1 (configuration not stated)	·	·
i	3.8	-6.5	COc1ccc(S(=O)(=O)Cc2ccc(C(=O)NCCc3ccc(S(N)(=O)=O)cc3)o2)cc1	i	i
·	9.6	0.7	CC(C)(C)NC(=O)Cn1c(=O)oc2cc(S(=O)(=O)N3CCc4ccccc43)ccc21	·	·
·	1.5	-4.4	N#Cc1ccccc1NC(=O)COC(=O)CSc1nc2ccccc2o1	·	·
·	4.0	1.8	COc1ccc(Br)cc1CNC(=O)C1CCN(S(=O)(=O)N2CCCCC2)CC1	·	·
·	-4.1	-2.2	COCCNC(=O)Cn1cc2c(n1)CCC(C)C2 (configuration not stated)	·	·
·	-6.3	1.8	CSC1=NCCN1C(=O)c1c(-c2ccccc2Cl)noc1C	·	·
·	-1.7	1.8	Cc1nn(CC(=O)O)c2ccccc12	·	·
i	2.3	0.2	COCCN(CCOC)S(=O)(=O)c1ccc(C(=O)Nc2nnc(C3CC3)o2)cc1	i	i
i	1.2	-0.5	CC(CCc1ccccc1)NC(=O)C1CCCN(c2nnc(-n3cccc3)s2)C1 (configuration not stated)	i	i
·	-4.3	8.1	COc1ccccc1NC(=O)CN1CCN(c2ccccc2F)CC1	·	·
·	0.7	3.0	Cc1ccccc1-c1nc(CS(=O)(=O)CC(=O)N2CCc3ccccc32)c(C)o1	·	·
·	-1.2	11.6	O=C(CCN1C(=O)C2C3C=CC(C3)C2C1=O)N1CC(=O)N(CCc2ccccc2)C(=O)C1 (configuration not stated)	·	·
i	-8.4	-0.4	O=C(c1cnn2c1NC(c1ccco1)CC2C(F)(F)F)N1CCN(c2cccc(Cl)c2)CC1 (configuration not stated)	i	i
·	-12.2	-8.3	CCCCN(C)c1nc(-c2ccco2)c2c(c1C#N)CC(C)(C)OC2	·	·
i	-3.2	7.1	Cc1nc2sccn2c(=O)c1CCN1CCC(=C(c2ccc(F)cc2)c2ccc(F)cc2)CC1	87.2%	i
·	2.7	1.2	O=C(Cn1ncn2c(cc3ccccc32)c1=O)NCc1ccco1	·	·
·	-9.2	-3.3	COc1ccc(/C(O)=C2/C(=O)C(=O)N(CCCN(C)C)C2c2cccc(Cl)c2)cc1OC (configuration not stated)	·	·
i	-1.6	8.8	c1coc(-c2nnc(NC3=NCCC3)o2)c1	i	i
i	-7.4	1.0	Cc1nc2scc(-c3cccs3)c2c(=O)n1-n1cccc1	i	i
·	4.2	4.8	O=C(c1ccccc1F)N1CCN(S(=O)(=O)c2ccc3c(c2)OCCO3)CC1	·	·
i	15.0	4.2	CCCCOc1ccc(NC(=O)Cn2c(=O)ccc3c(C)cc(C)nc32)cc1	i	i
i	3.8	-7.9	CCn1c(SCC(=O)Nc2ccc3c(c2)OCO3)nnc1-c1ccccc1O	i	i
·	0.4	2.9	CCOC(=O)C1CCN(c2c(NCCN3CCCCC3C)c(=O)c2=O)CC1 (configuration not stated)	·	·
i	-4.2	1.7	CSCCC(NC(=O)c1ccco1)C(=O)O (configuration not stated)	i	i
·	-3.7	-5.5	Cn1c(C(=O)Nc2ccc3c(c2)OCCO3)cc2c(=O)n(C)c3ccccc3c21	·	·
i	-1.5	2.5	CCCCc1nccn1CCn1ccnc1CCCC	i	i
·	0.8	1.8	COc1ccc(NC(=O)CN2CCN(c3ccc(F)cc3)CC2)cc1Cl	·	·
i	0.2	-0.3	Cn1c(SCC(=O)Nc2ccc3c(c2)OCO3)nnc1-c1cnccn1	i	i
·	-2.8	-5.7	Cc1c(NC(=O)NC(C)N2C(=O)C3C4C=CC(C4)C3C2=O)c(=O)n(-c2ccccc2)n1C (configuration not stated)	·	·
·	-4.7	-1.0	Cc1nc2sc(C(c3ccco3)N3CCOCC3)c(O)n2n1 (configuration not stated)	·	·
·	-1.0	3.8	Cc1cc(C)n(Cc2ccc(C(=O)NCc3ccco3)o2)n1	·	·
·	-2.0	6.3	O=C(CCc1nc(-c2ccccc2F)no1)NCCN1CCOCC1	·	·
·	0.9	-2.8	Cc1ccc2c(c1)N(CCC(=O)NCc1ccco1)C(=O)CO2	·	·
·	0.4	-1.3	CCc1cc(=O)oc2cc3oc(C)c(C)c3cc12	·	·
i	-3.3	-0.6	C=CCSc1nnc2n(-c3ccccc3OC)c(=O)c3c4c(sc3n12)CCC4	i	i
·	4.3	-9.8	c1ccc(-c2csc3nnc(SCc4ccc5c(c4)OCO5)n23)cc1	·	·
·	-13.0	-11.4	CC1CCc2nn(CC(=O)N3CCCCCC3)cc2C1 (configuration not stated)	·	·
·	2.9	-2.3	COCCn1c(=O)[nH]c2cc(C(=O)NCCN3CCN(c4ccccc4)CC3)ccc2c1=O	·	·
·	3.9	4.2	COc1ccc(-c2cc(C(F)F)n3ncc(C(=O)N4CCN(C(=O)c5ccco5)CC4)c3n2)cc1	·	·
·	-7.7	-9.5	COc1ccccc1NC(=O)CN1CCN(C2c3ccccc3-c3ccccc32)CC1	·	·
·	-1.2	1.9	Nc1c(C(=O)NCc2ccco2)nnn1-c1ccccc1	·	·
i	-2.8	9.3	Cc1nnc(NC(=O)C2CCCO2)s1 (configuration not stated)	i	i
i	1.1	3.3	CS(=O)(=O)NCc1ccc(C(=O)NCc2ccccc2)cc1	i	i
·	4.1	3.4	COC(=O)CN1CCN(C(=O)c2ccc(F)cc2)c2ccccc2C1	·	·
i	16.9	-0.2	Cn1ccnc1C(O)c1ccco1 (configuration not stated)	i	i
·	-0.7	6.8	C/C(O)=C(/N=O)C(=O)Nc1ccccc1	·	·
i	2.0	2.3	CCCOc1ccccc1NC(=O)c1c(-c2ccccc2)noc1C	i	i
·	-1.5	-0.2	CCOC(=O)c1cn(CC(=O)Nc2ccccc2C(=O)OCC)nn1	·	·

# Source: PubChem (several laboratories)
